Compound activity deposited in PubChem BioAssay by National Center for Advancing Translational Sciences (NCATS).
VACV Venus inh: vaccinia inhibition (Venus reporter) | Vaccinia virus Venus reporter expression, fluorescence | Potency, µM (highest dose often 36.5 µM), inactives show top-dose activity change, negative = inhibition, hits mostly inhibitors | 330,000 tested, 0.46% active | AID 720580; active means well fitted inhibition curve with a large enough effect; inconclusive means small, poorly fitted or top-dose-only effect; inactive means no such curve, though single readings can be large or run the other way; tested in A549 cells; note: nearly all actives have a fitted effect of over 30% in size; inactives centre near -10
VACV mCherry inh: inhibitors of vaccinia virus infection (mCherry reporter signal) | Vaccinia virus mCherry reporter infection, fluorescence; about a quarter of the inactives have no number | Potency, µM (series often up to 36.5 µM), inactives show at the highest dose activity change, negative = inhibition, hits mostly inhibitors | 310,000 tested, 0.63% active | AID 720579; active = well fitted inhibition curve with a large enough effect; inconclusive = small, poorly fitted or top-dose-only effect; inactive = no such curve, though single readings can be large or run the other way; tested in A549 cells; note: nearly all actives have a fitted effect of over 35% in size; inactives centre near -10
The depositor's hits bear a star; i = inactive; ? = inconclusive; . = not tested or not shown; & = joins results of further samples; [ ] = dose if it differs, or a comment. % is set by controls: 0 for no effect and ±100 for the full control effect; potency is the fitted concentration of half-maximal effect. Rows are unselected; any-hit rate near 0.86%.

Fields: VACV Venus inh | VACV mCherry inh
> COc1ccc(C(C(=O)NC(C)(C)C)N(CCc2ccccc2)C(=O)CCC(=O)Nc2cc(C)on2)cc1 (stereo not given)
  -23% | -23%
> O=C(COc1coc(CN2CCN(c3ccccc3)CC2)cc1=O)N1CCc2ccccc21
  -11% | -6%
> O=C(COc1ccccc1)Nc1ccc(C(=O)N2CCCC2)cc1
  -15% | i
> CC(=O)c1ccc(N2CCN(C(=O)c3ccc4nc[nH]c4c3)CC2)cc1
  -4% | i
> O=C1COc2ccc(C(=O)COC(=O)Cc3ccsc3)cc2N1
  -23% | -17%
> CCO[C@@H]1OC(C(=O)N2CCN(C)CC2)=C[C@H](c2csc3ccccc23)[C@H]1CCCO
  -14% | i
> CN(Cc1ncc[nH]1)C(=O)CC1C(=O)NCCN1Cc1c(F)cccc1Cl (stereo not given)
  -2% | -11%
> COc1cccc(CNC(=O)c2sc3nc4n(c(=O)c3c2C)CCC4)c1
  -3% | -11%
> O=C(N/N=C/c1cccc([N+](=O)[O-])c1)C1CC(=O)N(c2ccc(F)cc2)C1 (stereo not given)
  -21% | -19%
> CCC1CCCCN1S(=O)(=O)c1ccc(C(=O)Nc2nnc(C3CC3)o2)cc1 (stereo not given)
  -17% | ?

Complete entries, looked up by structure.
COc1cccc(CNC(=O)c2sc3nc4n(c(=O)c3c2C)CCC4)c1 in the list: VACV Venus inh = -3%; VACV mCherry inh = -11%
O=C1COc2ccc(C(=O)COC(=O)Cc3ccsc3)cc2N1 in the list: VACV Venus inh = -23%; VACV mCherry inh = -17%

Other structures.
Fields: VACV Venus inh | VACV mCherry inh
> Cn1cc(S(=O)(=O)CC(=O)N2CCc3ccccc32)c2ccccc21
  -10% | -11%
> C/C(=N/NS(=O)(=O)c1cc(C)ccc1C)c1ccc2c(c1)OCO2
  -4% | i
> O=C(Nc1ncn[nH]1)c1cc(S(=O)(=O)Nc2cccc(C(F)(F)F)c2)ccc1Cl
  -11% | i
> Cc1cccc(-n2cnc(C(=O)Nc3cccnc3)c2)n1
  13% | .
> Cc1ccc(/C=C/c2onc(C)c2S(=O)(=O)N2CCC(C(=O)N3CCN(c4cccc(C)c4)C(C)C3)CC2)cc1 (stereo not given)
  -24% | -27%
> CCOc1ccc(CCNC(=O)Cn2ccc3ccccc3c2=O)cc1OCC
  -7% | -5%
> Cc1ccc(N(C)S(=O)(=O)c2ccc(-c3coc(C)n3)cc2)cc1
  2% | -6%
> COc1cc(C2NC(=O)NC(C)=C2C(=O)OC(C)C)ccc1OC(=O)c1ccco1 (stereo not given)
  -10% | i
> Cc1cc2ccccc2n1CCNC(=O)C(C)(C)C
  2% | i
> O=C(O)c1ccc(CN2C(=O)c3ccccc3S2(=O)=O)cc1
  -8% | .
> Cc1cccc(Cn2c(=O)n(CC3CCC(C(=O)N4CCC(C)CC4)CC3)c(=O)c3sccc32)c1 (stereo not given)
  ? | ?
> Cn1c(C(=O)OCC(=O)NCc2ccc(F)cc2)cc2occc21
  -13% | -16%
> CCOc1ccccc1OCC(=O)NN1Cc2ccccc2C1=N
  -6% | -10%
> CCOc1ccc(NC(=O)CSc2nc(=O)n(CCCN3CCOCC3)c3c2CCC3)cc1
  -13% | i
> CCCCNC(=O)CNC(=S)N(Cc1ccccc1)Cc1cccnc1
  -1% | i
> COC(=O)c1cnc(Oc2ccc(NC(=O)NC(=O)c3c(F)cccc3Cl)cc2)cc1C(F)(F)F
  -4% | -10%
> O=C(CCN1C(=O)c2ccccc2C1=O)Nc1cccc(O)c1
  -1% | -15%
> Cc1csc(NC(=O)CS(=O)(=O)Cc2ccccc2)n1
  -17% | -12%
> Cc1cc(-c2csc3ncnc(N4CCN(C)CC4)c23)cc(C)c1C
  -18% | i
> Cc1cccc2cc(CN(C(=O)c3ccc(C(F)(F)F)cc3)C3CC3)c(N3CCC(O)CC3)nc12
  1% | -12%

Reformatted: two of the compounds above
CCOc1ccccc1OCC(=O)NN1Cc2ccccc2C1=N
- VACV Venus inh: -6%
- VACV mCherry inh: -10%

COC(=O)c1cnc(Oc2ccc(NC(=O)NC(=O)c3c(F)cccc3Cl)cc2)cc1C(F)(F)F
- VACV Venus inh: -4%
- VACV mCherry inh: -10%

New compounds follow
Fields: VACV Venus inh | VACV mCherry inh
> Nc1nc(SCC(=O)Nc2ccccc2)[nH]c(=O)c1NC(=O)c1cccs1
  -7% | i
> COCCn1c(SCC(=O)N2CCCCC2)nc2c(c1=O)SC(C)C2 (stereo not given)
  -8% | i
> Cc1cccc(C(=O)Nc2ccccc2OCc2cc(=O)n3cc(C)ccc3n2)c1
  -18% | -22%
> COc1ccc(-c2[nH]ncc2CN2CCC(N3CCSCC3)CC2)cc1F
  -4% | -13%
> CSC(=S)N/N=C/c1ccccc1
  -15% | -20%
> CC1(c2ccc(OC(F)F)cc2)NC(=O)N(CC(=O)Nc2cccc(S(N)(=O)=O)c2)C1=O (stereo not given)
  -17% | -1%
> Cc1ccc2c(c1)C=CC(C)(C)S2(=O)=O
  2% | i
> COc1ccc(C2CC(c3ccccc3)=NN2c2ccc(/C=N/NC(=O)c3ccncc3)cc2)cc1 (stereo not given)
  -18% | -10%
> COc1cccc(C2/C(=C(/O)c3ccccc3)C(=O)C(=O)N2Cc2ccco2)c1 (stereo not given)
  -5% | -13%
> COc1ccccc1NCC(=O)Nc1cc(S(=O)(=O)N2CCOCC2)ccc1N1CCOCC1
  -11% | -22%
> CCCN(CCC)C(=O)CC(c1ccccc1)c1cc(C)ccc1O (stereo not given)
  -22% | 0%
> CCOC(=O)c1ccc2[nH]c(C)c(CCC(C)=O)c(=O)c2c1
  -4% | i
> CC(O)(c1ccc(F)c(F)c1)c1nc(-c2cccc(C(=O)O)c2)cs1 (stereo not given)
  -1% | -13%
> COc1ccc(S(=O)(=O)N(CCc2ccccc2)CC(N)=O)cc1
  -13% | -9%
> C[C@H](CO)N1C[C@H](C)[C@@H](CN(C)Cc2cccc3c2OCCCO3)OCc2cnnn2CCCC1=O
  -11% | i
> Cc1cc(NC(=S)NC(=O)c2ccccc2)ccc1-c1cc2ccccc2oc1=O
  -24% | i
> COc1cc(=O)n2c(c1C(=O)NCc1ccco1)CCN(C(=O)c1ccccc1-c1ncc[nH]1)CC2
  -6% | -5%
> CCN(CC)c1ccc(NC(=O)COC(=O)CCC(=O)c2ccc(F)cc2)cc1
  2% | -10%
> COc1ccc(CONS(=O)(=O)c2ccc(NC(C)=O)cc2)cc1Cl
  -14% | -13%
> COc1ccc2c(c1)S(=O)(=O)c1ccccc1N2
  1% | -22%
> COc1ccc(NC(=O)CSc2nnc(-c3ccccc3Cl)n2Cc2ccco2)c(OC)c1
  -21% | .
> COc1cccc(CN=c2c([N+](=O)[O-])nn(-c3ccccc3C)n2O)c1
  0% | -4%
> CCc1ccc(NC(=O)CC2C(=O)NCCN2C(=S)Nc2ccccc2)cc1 (stereo not given)
  -15% | -25%
> CCCCOCCCNC(=O)c1ccc([N+](=O)[O-])c(C)c1
  -7% | -9%
> O=C(O)c1ccccc1NS(=O)(=O)c1cccc2cccnc12
  -14% | .
> CCOc1ccc(N(C(=O)c2ccc(C)cc2)S(=O)(=O)c2ccc3c(c2)n(C)c(=O)n3C)cc1
  -14% | -5%
> CCCS(=O)(=O)N1CCN(Cc2ccco2)CC1
  -3% | .
> O=C(NC1=NCCS1)C12CC3CC(C1)CC(C(=O)NC1=NCCS1)(C3)C2
  -12% | -19%[1.46 µM]
> Cc1ccc(C(=O)NCC(=O)N2CCC(Cc3ccccc3)CC2)cc1
  -19% | i
> COC(=O)c1ccc(CSc2ccccc2NC(=S)Nc2cccc(SC)c2)o1
  -17% | -4%

Filtered by structure: the entries above with a nitro group on carbon
Fields: VACV Venus inh | VACV mCherry inh
> O=C(N/N=C/c1cccc([N+](=O)[O-])c1)C1CC(=O)N(c2ccc(F)cc2)C1 (stereo not given)
  -21% | -19%
> COc1cccc(CN=c2c([N+](=O)[O-])nn(-c3ccccc3C)n2O)c1
  0% | -4%
> CCCCOCCCNC(=O)c1ccc([N+](=O)[O-])c(C)c1
  -7% | -9%

The list continues:
Fields: VACV Venus inh | VACV mCherry inh
> CC(C)CC(=O)Nc1ccc2nc(SCC(=O)N3CCc4ccccc43)sc2c1
  -21% | i
> O=C1CN(c2nc(-c3cccnc3)nc3scc(-c4ccccc4)c23)CCN1
  0% | -6%
> CN(C(=S)NC(=O)C1CCCC1)c1ccccc1
  -22% | -12%
> Cc1ccc2c(c1)c1c(c(=O)n(-c3ccccc3)c(=O)n1CC(=O)c1ccc(Cl)cc1)n2C
  ? | ?
> O=C(O)Cn1c(SCc2ccccc2)nc2ccccc21
  -13% | .
> Cc1c(CNCCCc2ccccc2)c(C(=O)O)c(C)n1Cc1ccc(Cl)cc1
  -5% | 0%
> Cn1nc(C(F)(F)F)cc1C(=O)O
  -12% | i
> COc1cc(C(=O)N2CCN(C(=O)COc3cccc(C)c3)CC2)cc(OC)c1OC
  3% | -8%
> CCCCn1nc2cc(C(=O)NCc3cc(C(F)(F)F)cc(C(F)(F)F)c3)ccc2c1OCC
  -24% | i
> C#CCOCCOCCOCCNc1nc(N2CCN(C(=O)CCCCCCCCCCNC(=O)Cn3cc(CCCCCN)nn3)CC2)nc(N2CCN(C(=O)CCCCCCCCCCNC(=O)Cn3cc(CCCCCN)nn3)CC2)n1
  -29% | i
> COc1ccc(C2(CNC(=O)C(=O)Nc3ccc(F)cc3)CCCC2)cc1OC
  -22% | -18%
> COc1cc(OC)c(NC(=O)c2cc3ccccc3cc2O)cc1Cl
  -7% | -19%
> CC(C)Cc1nnc(NC(=O)Cc2cccs2)s1
  12% | i
> Cc1ccc(C(O)P(=O)(OC(C)C)c2ccc(N(C)C)cc2)cc1 (stereo not given)
  -5%[7.34 µM] | -9%[7.34 µM]
> CC(C)NC(=S)NNc1nc2ccccc2s1
  -14% | -14%
> C#CCN(C[C@H]1[C@H](OC(=O)NCC2CCCCC2)[C@H](OC(=O)NCC2CCCCC2)C[C@H]2C(=O)N(c3ccccc3)C(=O)[C@@H]12)S(=O)(=O)c1ccc(C)cc1
  -11% | -10%
> COC(=O)CSc1nnc(C)n1-c1ccc(C)cc1
  -15% | -21%
> COc1cc(CNCc2ccc(SC)cc2)cc(OC)c1
  -7% | -16%
> Cc1ccc(-c2cc(C(=O)OCC(=O)Nc3cc(C)on3)c3ccccc3n2)c(C)c1
  -4% | -7%
> Cc1cc(/C=C2\SC(=S)NC2=O)c(C)n1-c1cccc(O)c1
  8% | ?
> O=C(CCl)Nc1cccc(CP(=O)(c2ccccc2)c2ccccc2)c1
  -6%[7.34 µM] | -29%[7.34 µM]
> Cc1ccc2c(c1)-c1ncc(C(=O)c3ccccc3O)cc1CO2
  -4% | -9%
> COc1cc2[nH]c(=O)n(CCCCCC(=O)N3CC=C(c4ccccc4)CC3)c(=O)c2cc1OC
  ? | -18%
> CCN(CC)CCN(Cc1cc2cc3c(cc2[nH]c1=O)OCO3)C(=S)NCc1ccco1
  -20% | -7%
> CCCCCCn1c(=O)n2n(c1=O)[C@@H]1CN(S(=O)(=O)c3ccc(C)cc3)C[C@]1(O)[C@@H](OC(=O)NCc1ccco1)C2
  -26% | i
> COc1ccccc1NC(=O)Nc1nc(CC(=O)N2CCN(c3ccccc3)CC2)cs1
  -28% | 1µM*
> Cc1c(NC(=O)CN2C(=O)c3cccc4cccc2c34)c(=O)n(-c2ccccc2)n1C
  -20% | -7%
> CC1CN(C(=O)CCNC(=O)c2ccccc2Cl)CC(C)O1 (stereo not given)
  -15% | -21%
> CC1(C)CC(=O)C(C(=O)c2ccccc2)C(=O)C1
  -7% | -16%
> COc1ccc(CCn2c3c(c(=O)[nH]c2=S)CN(CC(C)C)CN3)cc1OC
  -20% | -1%
> O=C(O)CCC(=O)N1N=C(c2cccs2)CC1c1cccc([N+](=O)[O-])c1 (stereo not given)
  1% | -1%
> CCCCCCCCN1[C@@H](CC(C)=O)c2ccc(/C=C/C(C)=O)cc2S1(=O)=O
  -5% | -16%
> N[C@@H](Cc1ccccc1)C(=O)N1CCC(C(=O)N[C@@H](Cc2c[nH]c3ccccc23)C(=O)O)CC1
  -2% | i
> COc1ccc(NC(=O)c2cccs2)cc1NC(=O)c1ccco1
  -15% | -19%
> CCN(CC)CCn1c(=N)n(CC(O)COc2ccccc2C)c2ccccc21 (stereo not given)
  ? | ?
> CNC(=O)n1cc(C)c(-c2cccs2)n1
  -9% | -9%
> Cc1ccc(N2CC(C(=O)Nc3ccc(S(=O)(=O)N4CCOCC4)cc3)CC2=O)cc1Cl (stereo not given)
  -18% | -15%
> O=C(c1ccc(F)cc1)N(Cc1ccccc1)C1CCS(=O)(=O)C1 (stereo not given)
  -10% | .
> CC(Sc1ncn[nH]1)C(=O)Nc1ccc(Cl)cn1 (stereo not given)
  1% | i
> CCCCC(CC)CNC(=O)CN1C(=O)CSc2ccc(S(=O)(=O)N3CCOCC3)cc21 (stereo not given)
  -13% | -14%
> CCCOC(=O)c1[nH]c2c(c1C)C(=O)CC(c1ccc(OC)c(OC)c1)C2 (stereo not given)
  -1% | -9%
> CSc1ccccc1NC(=S)N/N=C/c1cccn1Cc1ccc(F)cc1
  -11% | -8%
> Cc1ccc(SC[C@H](Cc2ccccc2)N2CC[C@@H](C)CCC2=O)cc1
  -18%&-18% | -3%
> Cc1cc(C(=O)OCC(=O)NC(C)C)c(C)o1
  -4% | i
